# Assay outcomes from PubChem BioAssay.
# MT1-MMP act inh = blocks activation of human MT1-MMP | GFP/RFP ratio change, % at 20 µM | HT1080 RFP-PRO-GFP cells, GFP/RFP ratio fluorescence, overnight; percent of plate control window, DMSO zero | 360,000 tested, 0.061% active | AID 651647;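 active = GFP/RFP ratio change of at least 30% with cell ATP level not reduced by more than half and red fluorescence within 50% of control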; also: strong numbers were not always called active
#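 Assay system: HT1080 cells carrying an RFP-PRO-GFP reporter | Dosing: Single dose of 20 µM compound, 1% DMSO final | Incubation: Cells overnight before dosing, compound overnight, 37 °C, 5% CO2 | Evaluation: GFP/RFP fluorescence ratio | Control set: DMSO and RFP-L50D-GFP cell wells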
# Env fusion inh = HIV envelope-mediated fusion inhibition; HeLa-JRFL Env/CEM21 cell fusion, luciferase; inhibition, % at 12.3 µM; 360,000 tested, 1.1% active; AID 651610;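 active = mean replicate inhibition score of at least 50 and every replicate individually at or above 50; inconclusive = only one of the two criteria met; inactive = mean below 50 and not all replicates reaching 50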;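 also: 0% = plate neutral controls and 100% = maraviroc near 300 nM; one replicate is shown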
# CSC inhib = blocks cancer stem cells | cancer stem cell-like cells viability, luminescence | inhibition, % at 7.5 µM | 300,000 tested, 1.1% active;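 active = mean at 75% or more and at least half the replicates too; inconclusive = mean and replicates disagree; tested in HMLE shEcad cells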;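 also: 0% = median of negative and 100% = median of positive control wells; the first replicate is given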
# Yeast UUG start = modulators of start codon recognition fidelity in yeast; S. cerevisiae UUG-firefly luciferase reporter, luminescence/redox ratio; activity score, % at 18.7 µM; 350,000 tested, 0.13% active; AID 602363;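 active = replicate mean at a twofold rise or more, about +100% in these data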;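 also: firefly luciferase made from a UUG start codon reports start codon fidelity; reporter light over untreated wells divided by growth signal over untreated wells; some hits fall short of that in this replicate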
# Rce1 inhib = blocks yeast Ras-converting enzyme | calls only | yeast membranes, quenched prenylated peptide cleavage fluorescence | 290,000 tested, 0.27% active | Q03530;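 active = fall in fluorescence gain of 50% or more versus controls, with final raw signal at or below 3038400; inconclusive = same 50% fall but final raw signal above 3038400; inactive = fall in fluorescence gain under 50%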;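 also: plate controls were neutral control wells for no effect and wells lacking membranes for full effect; tested at 10 µM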
# Target sequence (Q03530 whole entry, looked up): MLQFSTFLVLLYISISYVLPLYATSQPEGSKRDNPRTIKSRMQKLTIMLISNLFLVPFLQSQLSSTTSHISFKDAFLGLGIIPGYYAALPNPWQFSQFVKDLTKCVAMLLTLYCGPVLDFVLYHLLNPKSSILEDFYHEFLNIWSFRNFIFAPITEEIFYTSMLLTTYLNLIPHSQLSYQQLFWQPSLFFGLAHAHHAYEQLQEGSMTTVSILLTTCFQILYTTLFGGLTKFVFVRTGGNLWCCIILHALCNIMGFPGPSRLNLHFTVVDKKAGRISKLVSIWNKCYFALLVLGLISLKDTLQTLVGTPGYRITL
# eIF4H inh = inhibitors of RNA binding by human eIF4H; Q15056; eIF4H fluorescence polarization binding assay; inhibition, % at 35 µM; 290,000 tested, 0.94% active;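 active = 50% or more with normal probe brightness, or confirmed in later tests; inconclusive = above 50% with abnormal brightness, or retests that disagree; inactive = below 50% or failed in later tests; about a fifth of its hits are not listed in these tables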;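 also: calls also rest on retests at 20 µM and on dose response follow-up; 0% = protein and probe with vehicle and 100% = probe without protein; strong numbers were not always called active; many hits fall short of the cut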
# PABP polyA inh = blocks human PABP binding to poly(A) RNA. P11940. fluorescence polarization. inhibition, % at 35 µM. 290,000 tested, 1% active. AID 2014;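 active = 50% or more with normal probe brightness, or confirmed in later tests; inconclusive = above 50% with abnormal brightness, or retests that disagree; inactive = below 50% or failed in later tests; about a fifth of its hits are not listed in these tables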;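 also: calls also rest on retests at 20 µM and on dose response follow-up; controls were probe without protein and protein plus probe with vehicle; some compounds called inactive have numbers as strong as hits; many hits fall short of the cut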
# eIF4H inh retest = recorded beside eIF4H inh, whose call it bears; inhibition, %; compound at 20 µM; confirmation average;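 mean of two retest wells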
# PABP polyA inh retest = recorded beside PABP polyA inh, whose call it bears; inhibition, %; compound at 20 µM; confirmation repeats;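 mean of two retest wells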
# MT1-MMP act inh RFP = recorded beside MT1-MMP act inh, whose call it bears; RFP signal change, %; measured here: RFP expression control read;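 0 = vehicle wells; hits needed this value within 50% of zero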
# Active calls of the source: *; i = inactive; ? = inconclusive; / = no result given. Some of the compounds tested; the hit share may differ from the screen's.
SMILES,MT1-MMP act inh,MT1-MMP act inh RFP,Env fusion inh,CSC inhib,Yeast UUG start,Rce1 inhib,eIF4H inh,PABP polyA inh,others
O=c1[nH]ccc2c(O)cccc12,1,4,-31,-11,-7,i,/,/,
COc1cc2c(cc1OC)-c1cc(OCc3cccnc3)nc(=O)n1CC2,2,-11,-1,/,31,/,2,4,
CC1=C(C#N)C(c2cccnc2)C2=C(CCCC2=O)N1 (configuration not stated),3,7,/,-2,-5,/,1,-2,
O=C(CSc1ccc2nnc(-c3cccc(F)c3)n2n1)NCC1CCCO1 (configuration not stated),-3,-4,-24,/,-28,i,19,16,
Cc1nc2ccc(NC(=O)Cc3ccc4c(c3)OCCO4)cc2s1,3,3,8,-22,/,i,-4,-11,
OCCN1CCN(C(=S)c2ccc(Cl)cc2)CC1,-2,3,/,-8,-16,i,3,9,
CC(C)(O)c1[nH]c2ccc(C#N)cc2c1C(C)(C)O,/,/,50,-1,/,i,-3,3,
COc1ccc(O)c(-c2nc(N)nc(N)n2)c1,-17,-10,32,-14,-16,/,/,/,
CCC(=O)N1CCCc2cc(S(=O)(=O)N3CCN(c4ccccn4)CC3)ccc21,5,-7,16,16,-1,i,-1,1,
Cc1ccc(-n2c(-c3ccco3)nc3nc4ccccc4nc32)cc1F,-46,3,-31,-7,-13,i,72,-8,eIF4H inh retest=-9;PABP polyA inh retest=5
O=C1S/C(=C\c2cccs2)C(=O)N1c1ccc(O)cc1,1,-1,-113,3,-25,i,-5,6,
COC(=O)Cn1c(=NC(=O)c2nc3ccccc3s2)sc2cc(S(C)(=O)=O)ccc21,/,/,-2,8,/,i,-2,-7,
CCc1ccc(-n2c(Cc3ccccc3)n[nH]c2=S)cc1,-1,-1,3,4,/,i,2,-12,
Cc1cc(C)n(-c2c(F)c(F)c(CN3CCCCC3)c(F)c2F)n1,-1,3,/,/,-8,i,-11,3,
N#Cc1ccsc1NC(=O)CCS(=O)(=O)c1ccccc1,1,4,/,4,-11,i,-8,-3,
COc1cc2cc(C(=O)N/N=C/c3ccc(F)cc3)[nH]c2cc1OC,8,0,8,1,-13,i,-4,11,
COC(=O)c1c(NC(=O)c2c(C)noc2C)sc2c1CCCCCC2,/,/,/,/,/,i,-2,-4,
CCOc1ccc(C2C3=C(CCCC3=O)Nc3nc(C(F)(F)F)nn32)cc1OC (configuration not stated),1,2,/,-19,-7,i,-6,15,
O=C(Cc1ccccc1F)Nc1cc(S(=O)(=O)N2CCCC2)ccc1Cl,2,-3,1,-12,-14,/,/,/,
CC(C)CN(C(=O)c1cc(=O)[nH]c2ccccc12)c1c(N)n(Cc2ccccc2)c(=O)[nH]c1=O,-1,1,/,-2,-10,i,/,/,
O=C(c1cccs1)N1CCCN(c2ncnc3scc(-c4ccccc4)c23)CC1,-3,-4,26,-8,14,i,7,4,
CS(=O)(=O)c1ccc2nc(NC(=O)CN3CCCCCC3)sc2c1,2,5,-6,5,2,i,4,37,
COC(=O)c1cc(Br)c(=O)n(-c2cc(C)on2)c1,-11,-7,/,-5,-15,/,-8,0,
O=C(/C=C/c1ccc(Cl)cc1Cl)N1CCN(c2ccc([N+](=O)[O-])c(N3CCOCC3)c2)CC1,3,-8,33,10,/,i,-8,-19,
Cc1cc(C)cc(OCCn2nnc3ccccc32)c1,2,-5,-5,-13,-14,i,-8,6,

# Reprinted from the part before: 4 entries, followed by the next part.
SMILES,MT1-MMP act inh,MT1-MMP act inh RFP,Env fusion inh,CSC inhib,Yeast UUG start,Rce1 inhib,eIF4H inh,PABP polyA inh,others
CS(=O)(=O)c1ccc2nc(NC(=O)CN3CCCCCC3)sc2c1,2,5,-6,5,2,i,4,37,
COC(=O)c1cc(Br)c(=O)n(-c2cc(C)on2)c1,-11,-7,/,-5,-15,/,-8,0,
O=C(/C=C/c1ccc(Cl)cc1Cl)N1CCN(c2ccc([N+](=O)[O-])c(N3CCOCC3)c2)CC1,3,-8,33,10,/,i,-8,-19,
Cc1cc(C)cc(OCCn2nnc3ccccc32)c1,2,-5,-5,-13,-14,i,-8,6,
CSc1nc2nccc(-c3ccc4c(c3)OCO4)n2n1,-2,-3,-12,-6,-20,i,1,0,
O=C(CC1COc2ccccc2O1)NCc1ccccc1 (configuration not stated),2,-4,/,-12,-1,i,-3,-2,
CC(C)C(c1nnnn1C1CCCCC1)N1CCc2ccccc21 (configuration not stated),-1,2,-46,-7,-8,i,-6,-6,
CN(C)c1ccc(-c2csc(C(C)(O)c3ccc(F)c(F)c3)n2)cc1 (configuration not stated),-8,-20,23,/,-19,/,/,/,
O=c1ccc2c(ccc3ncccc32)o1,-14,-4,20,/,-41,/,/,/,
CSc1ccccc1COC(=O)Nc1ccccc1C,1,-2,1,-7,/,i,-11,-10,
COC(=O)c1c(C)[nH]c(O)c1C=Nc1ccc(Oc2ccccc2)cc1,-13,2,-13,12,/,i,?,2,
COc1ccc(C(=O)OCC(=O)Nc2cc(C)c(C)cc2[N+](=O)[O-])cc1,-1,6,0,1,/,i,15,-6,
COc1ccc(-c2[nH]ncc2/C=N/NC(=O)c2cc(Br)ccc2O)c(OC)c1,3,1,/,-3,-23,i,15,-6,
Cc1ccc(Cl)cc1N1CCN(Cc2nc3c(c(=O)[nH]c(=O)n3C)n2CCc2ccccc2)CC1,1,4,/,5,-3,i,-4,-12,
COc1ccc(C(C(=O)Nc2ccc(F)cc2)N(C(=O)Cn2nnc3ccccc32)C2CC2)cc1 (configuration not stated),4,0,-26,-10,-23,i,3,-1,
COc1ccn(C2CCCCO2)c(=O)n1 (configuration not stated),0,1,-47,/,4,/,/,/,
O=C(CSc1ccccc1F)NCC(c1ccco1)N1CCCCC1 (configuration not stated),3,-2,0,/,-5,/,/,/,
CN(C)CCN1C(=O)C(=O)/C(=C(/O)c2ccc(S(=O)(=O)N3CCOCC3)cc2)C1c1ccc(F)cc1 (configuration not stated),-2,1,1,5,1,i,-6,6,
CCOc1cccc(N2C(=O)CC(N(CCc3ccc(OC)c(OC)c3)C(=O)CC)C2=O)c1 (configuration not stated),6,8,/,3,3,i,-3,-3,
Cc1[nH]c2ccccc2c1/C=N/Nc1ccccn1,/,/,-28,/,/,i,6,-7,
CCn1nc(C)c(CNC(=O)CC2C(=O)NCCN2CC(C)(C)C)c1C (configuration not stated),1,1,22,13,-16,i,3,-12,
COC(=O)[C@]1(C)N[C@H](CN(C)S(=O)(=O)c2ccc(OC(F)(F)F)cc2)[C@@H]2C(=O)N(Cc3ccccc3)C(=O)[C@@H]21,-6,-3,82*,/,-2,/,/,/,
CC(=O)c1cccc(OCc2cc(C(=O)N(C)C(C)c3ccccn3)no2)c1 (configuration not stated),1,-7,-3,-8,16,i,8,6,
O=C(Nc1ccc(NC(=O)C2CC2)nc1)c1ccccn1,-3,-1,-30,2,-38,i,8,4,
Cc1ccccc1OCC(=O)Nc1cccc(C(=O)O)c1,1,3,76*,/,/,/,8,-14,
COC(=O)c1sccc1NC(=O)CN1CCN(c2ccc(F)cc2)CC1,-6,-6,/,15,/,i,-1,6,
CCN(C(=O)COC(=O)C(c1ccccc1)c1ccccc1)c1c(N)n(Cc2ccccc2)c(=O)[nH]c1=O,8,-4,14,/,2,/,/,/,
COc1cccc(C(=O)COC(=O)CCC(=O)c2ccccc2)c1,0,4,0,-15,-20,i,11,8,
CCCOc1ccccc1-n1sc2c(c1=S)-c1cc(OC)cc3c1N(C(=O)C3=O)C2(C)C,2,-4,-34,?,-13,/,-1,5,
# (next part)
SMILES,MT1-MMP act inh,MT1-MMP act inh RFP,Env fusion inh,CSC inhib,Yeast UUG start,Rce1 inhib,eIF4H inh,PABP polyA inh,others
Cc1cc2ccccc2n1CCNC(=O)C(C)Oc1ccccc1 (configuration not stated),38*,40*,6,-3,7,i,?,15,
CCC(C)[C@H](NC(=O)C1CCN(C(=O)[C@H](Cc2ccccc2)NS(=O)(=O)c2ccc(C)cc2)CC1)C(=O)O (some centres not stated),-1,1,-8,1,-1,i,-6,-7,
COc1cc(/C=N/n2cc(-c3ccccc3)[nH]c2=S)cc(OC)c1O,3,0,20,-7,-17,i,-14,-6,
CCCCOCCCNC(=O)c1ccccc1OCC,6,4,/,-6,-17,i,-4,-6,
Cc1ccc(NC(=O)Nc2cnccn2)cc1Cl,-1,-1,-40,9,/,i,-10,-8,
Cc1cc(=O)oc2ccc(OC(=O)CN3C(=O)c4cccc([N+](=O)[O-])c4C3=O)cc12,0,4,-1,/,/,i,15,7,
Cc1nc(NC(=O)CN(C)S(=O)(=O)c2ccc(Br)cc2)sc1C,1,-1,-55,1,/,i,3,2,
CCOc1cc(/C=C2/NC(=O)NC2=O)cc([N+](=O)[O-])c1O,19,-2,17,0,/,i,0,24,
CCN(CC)c1ccc(C(=O)Nn2c(C)nc3ccccc3c2=O)cc1,-2,-4,-17,-11,/,i,-3,1,
CSc1ccccc1NC(=O)c1ccccc1N(Cc1ccccc1)S(C)(=O)=O,7,-2,/,/,16,i,-7,-9,
Cn1ncc(Cl)c1C(=O)Nc1sc2c(c1C(N)=O)CCC2,-11,0,-79,-12,-5,i,8,-5,
CC1CC(C)(C)N(C(=O)NC2CCCCC2)c2ccccc21 (configuration not stated),0,1,/,3,-21,i,-8,10,
O=C(CSc1ncccn1)NC1CCCC1,0,5,8,/,-11,/,/,/,
CC1(C(=O)NC2CCCCC2)CCC(=O)N1C1CCN(Cc2ccccc2)CC1 (configuration not stated),3,7,7,/,-10,/,/,/,
Cc1nc2ccc(C(=O)Nc3ccc(N(C)C)cc3)cc2s1,3,-1,-34,17,/,i,/,/,
Cc1ccc(SCC(=O)NNC(=O)CCS(=O)(=O)c2ccc(C)cc2)cc1,1,6,3,-5,-9,/,/,/,
Cc1cc(C)nc(NS(=O)(=O)c2cccs2)c1,5,5,11,-6,/,i,2,0,
CC(CC1C(C#N)=C(N)SC(N)=C1C#N)c1ccccc1 (configuration not stated),-26,-25,/,18,-8,i,?,?,
O=C(CCc1ccccc1)NNC(=O)c1cccc(F)c1,1,4,13,-4,/,i,26,12,
c1ccc(C2=NCCCO2)cc1,3,0,-7,/,-1,/,/,/,
O=C(Cc1ccccc1F)Nc1ccc(S(=O)(=O)N2CCCCC2)cc1,-2,2,/,10,-8,i,-1,2,
O=C(COc1ccccc1)NC1=NCCS1,-3,2,-24,-16,-18,/,-4,-11,
CC(=O)N1c2ccc(S(=O)(=O)N3CCC(C(=O)NCc4ccc(C)cc4)CC3)cc2CC1C (configuration not stated),3,0,10,-3,-6,i,4,-2,
O=C(NC1CCCN(Cc2ccccc2F)C1)c1cccc(N2CCCC2=O)c1 (configuration not stated),2,3,10,8,4,i,-8,1,
O=C(NCCc1ccc(Cl)cc1)C1(c2ccccc2)CC1,0,-2,9,5,5,i,-7,0,
O=c1oc2ccccc2c(Nc2ccc3ncccc3c2)c1[N+](=O)[O-],3,0,3,-9,/,i,35,6,
CCN(CC)c1ncc(C#N)c(N)n1,5,-1,-2,-6,3,i,4,30,
Cc1ccc(Cl)c(Cn2cnc3c(cnn3C(C)(C)C)c2=O)c1F,-3,-22,31,43,-13,/,/,/,
